Source: PubChem (Broad Institute)
HIV Env fusion: blocks HIV Env-driven cell-cell fusion. HeLa-JRFL Env/CEM21 cell fusion, luciferase. 360,000 compounds, 1.1% hits. inhibition, % at 12.3 µM;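 active means mean replicate inhibition score of at least 50 and every replicate individually at or above 50; inconclusive means only one of the two criteria met; inactive means mean below 50 and not all replicates reaching 50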;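 further: 0% = plate neutral controls and 100% = maraviroc near 300 nM; one replicate is shown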
UUG fidelity: alters start codon recognition fidelity in yeast. S. cerevisiae UUG-firefly luciferase reporter, luminescence/redox ratio. activity score, % at 18.7 µM. 350,000 compounds, 0.13% hits;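 active means replicate mean at a twofold rise or more, about +100% in these data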;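 further: firefly luciferase made from a UUG start codon reports start codon fidelity; reporter light over untreated wells divided by growth signal over untreated wells; some hits fall short of that in this replicate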
Numbers without * were called inactive; ? = inconclusive; [ ] = remark or other dose. The list is partial. The share of hits here may be higher or lower than overall.

Compound	HIV Env fusion	UUG fidelity
C[C@@H]1CN([C@H](C)CO)C(=O)c2cccc(NC(=O)NC3CCCCC3)c2O[C@@H]1CN(C)CC1CCCCC1	8[16.7 µM]	-3
COc1ccccc1NC(=O)N1C[C@@H](O)COC[C@@H]2O[C@@H](CC(=O)NCCc3ccncc3)CC[C@H]21	-23[16.7 µM]	-1
COc1ccc(S(=O)(=O)Nc2ccc3c(c2)C(=O)N(C)C[C@@H](OC)[C@@H](C)CN[C@@H](C)CO3)cc1	3[16.7 µM]	6
CCCN(C)C[C@H]1Oc2cc(-c3cccc(C#N)c3)ccc2S(=O)(=O)N([C@@H](C)CO)C[C@H]1C	-17[16.7 µM]	77
C[C@H](CO)N1C[C@H](C)[C@H](CN(C)C(=O)NC2CCCCC2)Oc2ccc(NC(=O)Nc3cccc4ccccc34)cc2CC1=O	-4[16.7 µM]	-9
C[C@@H]1CN([C@@H](C)CO)C(=O)c2cc(-c3ccccc3F)cnc2O[C@@H]1CN(C)C(=O)C1CCOCC1	-1[16.7 µM]	8
Cc1ccc(-c2cnc3c(c2)C(=O)N([C@@H](C)CO)C[C@@H](C)[C@H](CN(C)C(=O)c2ccncc2)O3)cc1	8[16.7 µM]	9
CCCN1C[C@H](C)[C@H](OC)CN(C)C(=O)c2ccc(NS(C)(=O)=O)cc2OC[C@@H]1C	-9[16.7 µM]	15
COC(=O)C1CCN(C(=O)COc2ccc(N(C)S(=O)(=O)c3ccc(C)cc3)cc2)CC1	0	10
Cc1ccc(S(=O)(=O)Nc2ccc3c(c2)CC(=O)N([C@@H](C)CO)C[C@@H](C)[C@H](CN(C)S(=O)(=O)c2ccc(F)cc2)O3)cc1	-27[16.7 µM]	6
C[C@@H]1CN([C@@H](C)CO)C(=O)c2cc(N(C)C)ccc2O[C@@H](C)CCCCO[C@H]1CN(C)S(C)(=O)=O	14[16.7 µM]	-1
C[C@@H]1CCCCO[C@@H](CN(C)CC2CCCCC2)[C@H](C)CN([C@H](C)CO)C(=O)c2cc(NC(=O)NC3CCCCC3)ccc2O1	70*[16.7 µM]	3

6 entries picked at random from the list so far, as already listed:
Compound	HIV Env fusion	UUG fidelity
C[C@@H]1CN([C@@H](C)CO)C(=O)c2cc(N(C)C)ccc2O[C@@H](C)CCCCO[C@H]1CN(C)S(C)(=O)=O	14[16.7 µM]	-1
CCCN(C)C[C@H]1Oc2cc(-c3cccc(C#N)c3)ccc2S(=O)(=O)N([C@@H](C)CO)C[C@H]1C	-17[16.7 µM]	77
Cc1ccc(-c2cnc3c(c2)C(=O)N([C@@H](C)CO)C[C@@H](C)[C@H](CN(C)C(=O)c2ccncc2)O3)cc1	8[16.7 µM]	9
COc1ccc(S(=O)(=O)Nc2ccc3c(c2)C(=O)N(C)C[C@@H](OC)[C@@H](C)CN[C@@H](C)CO3)cc1	3[16.7 µM]	6
COc1ccccc1NC(=O)N1C[C@@H](O)COC[C@@H]2O[C@@H](CC(=O)NCCc3ccncc3)CC[C@H]21	-23[16.7 µM]	-1
COC(=O)C1CCN(C(=O)COc2ccc(N(C)S(=O)(=O)c3ccc(C)cc3)cc2)CC1	0	10

(further entries)
Compound	HIV Env fusion	UUG fidelity
CO[C@@H]1CN(C)C(=O)c2ccc(NC(=O)Nc3ccccc3F)cc2OC[C@@H](C)NC[C@@H]1C	10[16.7 µM]	5
COc1cccc(S(=O)(=O)Nc2ccc3c(c2)[C@@H]2C[C@@H](CC(=O)O)O[C@@H](CO)[C@@H]2O3)c1	-31[16.7 µM]	-4
Cc1ccc(S(=O)(=O)Nc2ccc3c(c2)CC(=O)N([C@@H](C)CO)C[C@H](C)[C@H](CN(C)C(=O)Nc2ccccc2)O3)cc1	0[16.7 µM]	6
Cc1noc(C)c1NC(=O)Nc1ccc2c(c1)CC(=O)N([C@@H](C)CO)C[C@@H](C)[C@@H](CN(C)C(=O)NC(C)C)O2	-25[16.7 µM]	-1
C[C@@H]1CN([C@H](C)CO)C(=O)c2cc(NC(=O)CCC(F)(F)F)ccc2O[C@@H](C)CCCCO[C@H]1CN(C)C(=O)CCC(F)(F)F	23[16.7 µM]	18
C[C@H]1CN([C@@H](C)CO)C(=O)Cc2cc(NS(=O)(=O)c3ccccc3)ccc2O[C@H]1CN(C)Cc1ccc(-c2ccccc2)cc1	-9[16.7 µM]	5
Cc1noc(C)c1S(=O)(=O)N(C)C[C@H]1Oc2c(cccc2N(C)C)C(=O)N([C@@H](C)CO)C[C@@H]1C	-4[16.7 µM]	0
Cc1ccc(S(=O)(=O)Nc2ccc3c(c2)C(=O)N([C@@H](C)CO)C[C@@H](C)[C@H](CN(C)S(=O)(=O)c2cn(C)cn2)OCCCC[C@H](C)O3)cc1	-48[16.7 µM]	4
C[C@H]1CN([C@@H](C)CO)C(=O)Cc2cc(NC(=O)Nc3ccc(C(F)(F)F)cc3)ccc2O[C@@H]1CN(C)C(=O)Nc1ccc(F)cc1	1[16.7 µM]	1
C[C@@H]1CN([C@@H](C)CO)C(=O)Cc2cc(NC(=O)C3CCCCC3)ccc2O[C@H]1CN(C)CC1CC1	5[16.7 µM]	2
C[C@H]1CN([C@@H](C)CO)S(=O)(=O)c2ccc(-c3cccnc3)cc2O[C@@H]1CN(C)C(=O)C1CCCCC1	6[16.7 µM]	9
COc1ccc(S(=O)(=O)N[C@@H]2CC[C@H](CC(=O)N3CCN(c4ccccc4)CC3)O[C@H]2CO)cc1	0[16.7 µM]	21
COc1ccc(NC(=O)N(C)C[C@H]2Oc3ccc(NC(=O)c4ccncc4)cc3C(=O)N([C@@H](C)CO)C[C@@H]2C)cc1	3[16.7 µM]	-13
CO[C@H]1CN(C)C(=O)c2cc(NS(=O)(=O)c3ccccc3Cl)ccc2OC[C@H](C)NC[C@H]1C	-2[16.7 µM]	-9
C/C=C/c1cnc2c(c1)C(=O)N([C@H](C)CO)C[C@H](C)[C@H](CN(C)Cc1ccc3c(c1)OCO3)O2	16[16.7 µM]	-5
Cc1ccc(S(=O)(=O)N(C)C[C@@H]2Oc3ccc(NC(=O)Cc4ccccc4)cc3CC(=O)N([C@H](C)CO)C[C@H]2C)cc1	14[16.7 µM]	-5
CN(C)C(=O)C[C@@H]1C=C[C@@H](NC(=O)C2CCC2)[C@H](CO)O1	14[16.7 µM]	-4
CC(C)NC(=O)N[C@H]1CC[C@H](CCNS(=O)(=O)c2ccc(F)cc2)O[C@H]1CO	5[16.7 µM]	14
C[C@H]1CN([C@@H](C)CO)C(=O)Cc2cc(NC(=O)CCN3CCOCC3)ccc2O[C@@H]1CN(C)C(=O)Nc1cccc2ccccc12	7[16.7 µM]	14
C[C@H]1CN([C@@H](C)CO)C(=O)c2cc(-c3ccc(F)cc3)cnc2O[C@H]1CN(C)C(=O)NC1CCCC1	26[16.7 µM]	-3
Cc1ccc(S(=O)(=O)N(C)C[C@@H]2Oc3ncccc3C(=O)N([C@H](C)CO)C[C@@H]2C)cc1	-7[16.7 µM]	0
CN(C)CC(=O)N[C@H]1CC[C@@H](CCn2cc(C3CC3)nn2)O[C@H]1CO	-8[16.7 µM]	0
O=C(C[C@H]1C=C[C@H](NC(=O)c2ccccc2)[C@@H](CO)O1)NCCc1ccncc1	-7[16.7 µM]	-9
O=C(N[C@H]1CC[C@@H](CC(=O)N2CCC(Cc3ccccc3)CC2)O[C@@H]1CO)c1cnccn1	?	-2
O=C(C[C@@H]1CC[C@@H](NC(=O)Nc2ccc3c(c2)OCO3)[C@@H](CO)O1)NCc1ccc(F)cc1	8[16.7 µM]	-9
CN(C)CC(=O)N[C@@H]1C=C[C@H](CC(=O)NCc2ccccc2F)O[C@@H]1CO	25[16.7 µM]	-7
CCS(=O)(=O)Nc1ccc2c(c1)C(=O)N(C)C[C@H](OC)[C@@H](C)CN(C(C)=O)[C@H](C)CO2	10[16.7 µM]	-7
C[C@H](CO)N1C[C@H](C)[C@@H](CN(C)C(=O)Nc2ccc(C(F)(F)F)cc2)OCCCC[C@H](C)Oc2ccc(NS(=O)(=O)c3cccs3)cc2C1=O	24[16.7 µM]	-13
CCNC(=O)C[C@H]1CC[C@@H]2[C@@H](COc3ccc(NC(=O)c4cscn4)cc3C(=O)N2C)O1	-8[16.7 µM]	6
COc1ccccc1NC(=O)N[C@@H]1CC[C@H](CCNC(=O)c2ccc3c(c2)OCO3)O[C@H]1CO	-1[16.7 µM]	11
NCC[C@H]1CC[C@H](NC(=O)C2CCC2)[C@@H](CO)O1	7[16.7 µM]	7
C[C@@H]1CN([C@H](C)CO)C(=O)c2cc(C#Cc3ccc(F)cc3)cnc2O[C@@H]1CN(C)C(=O)Nc1ccc(F)cc1	-2[16.7 µM]	-14
C[C@@H]1CN([C@H](C)CO)C(=O)c2cccc(NC(=O)Nc3ccc4c(c3)OCO4)c2O[C@H]1CN(C)S(C)(=O)=O	-5[16.7 µM]	-8
COc1ccc([Si](C)(C)[C@@H]2[C@@H](CC(=O)N3Cc4ccccc4C[C@H]3CO)O[C@]3(C(=O)N(C)c4c(Br)cc(C)cc43)[C@H]2C)cc1	1[16.7 µM]	-10
COC(=O)C[C@@H]1CC[C@H]2[C@@H](COc3ccc(NC(=O)c4cc(F)cc(F)c4)cc3C(=O)N2C)O1	-8[16.7 µM]	1
COc1ccc(NC(=O)N(C)C[C@H]2OCCCC[C@H](C)Oc3ccc(NC(=O)NC(C)C)cc3C(=O)N([C@@H](C)CO)C[C@@H]2C)cc1	-3[16.7 µM]	16
C[C@H](CO)N1C[C@H](C)[C@H](CN(C)C(=O)Cc2ccccn2)Oc2cc(-c3ccc(C(=O)N(C)C)cc3)ccc2S1(=O)=O	13[16.7 µM]	2
C[C@@H]1CCCCO[C@@H](CN(C)S(C)(=O)=O)[C@H](C)CN([C@@H](C)CO)C(=O)c2cc(NS(=O)(=O)c3ccccc3)ccc2O1	9[16.7 µM]	29
C[C@@H]1CN([C@@H](C)CO)C(=O)Cc2cc(NC(=O)c3ccncc3)ccc2O[C@H]1CN(C)Cc1ccc2c(c1)OCO2	-19[16.7 µM]	-1
Cc1ccccc1S(=O)(=O)N1[C@H](C#N)[C@@H](c2ccccc2)[C@H]1CO	-4[16.7 µM]	-10
CCCNC(=O)C[C@H]1CC[C@@H]2[C@H](COc3ccc(NC(=O)Cc4ccccc4)cc3C(=O)N2C)O1	-7[16.7 µM]	16
O=C(C[C@@H]1C=C[C@H](NC(=O)Nc2ccc(F)cc2)[C@H](CO)O1)NCc1ccccn1	-6[16.7 µM]	-23
C[C@@H]1CN([C@@H](C)CO)S(=O)(=O)c2ccc(C3=CCCCC3)cc2O[C@@H]1CN(C)C(=O)Cc1ccccc1	-8[16.7 µM]	2
C[C@H](CO)N1C[C@H](C)[C@@H](CN(C)C(=O)C2CCC2)Oc2cc(C#Cc3ccncc3)ccc2S1(=O)=O	-60[16.7 µM]	6
CC(C)C#Cc1cnc2c(c1)C(=O)N([C@@H](C)CO)C[C@@H](C)[C@@H](CN(C)Cc1ccccc1F)O2	-7[16.7 µM]	0
C[C@@H]1CN([C@@H](C)CO)C(=O)c2cc(C3=CCCCC3)cnc2O[C@@H]1CN(C)CC1CCOCC1	6[16.7 µM]	-1
C[C@@H]1CCCCO[C@@H](CN(C)C(=O)NC2CCCCC2)[C@H](C)CN([C@@H](C)CO)C(=O)c2cc(NC(=O)CCCCCC(=O)Nc3ccccc3N)ccc2O1	-6[16.7 µM]	6
C[C@H]1CN([C@@H](C)CO)C(=O)c2cc(NC(=O)CCN3CCOCC3)ccc2O[C@@H]1CN(C)Cc1ccc2c(c1)OCO2	12[16.7 µM]	5
C[C@@H]1CN([C@H](C)CO)C(=O)Cc2cc(NS(=O)(=O)c3ccc(Cl)cc3)ccc2O[C@H]1CN(C)S(C)(=O)=O	-11[16.7 µM]	-8
CCNC(=O)Nc1ccc2c(c1)C(=O)N(C)[C@H]1CC[C@H](CC(=O)Nc3ccccc3)O[C@H]1CO2	-24[16.7 µM]	14
C[C@@H]1CCCCO[C@H](CN(C)C(=O)CCCN(C)C)[C@@H](C)CN([C@@H](C)CO)C(=O)c2cc(NC(=O)C3CCCCC3)ccc2O1	-12[16.7 µM]	19
C[C@H](CO)N1C[C@H](C)[C@@H](CN(C)C(=O)Nc2ccccc2)Oc2ccc(NC(=O)Cn3cnnn3)cc2CC1=O	4[16.7 µM]	9
CN1CCN(C(=O)C[C@H]2C[C@H]3c4cc(NC(=O)Nc5ccccc5)ccc4O[C@H]3[C@H](CO)O2)CC1	10[16.7 µM]	19
CCN1C[C@@H](C)[C@H](OC)CN(C)C(=O)c2cc(NC(=O)NC(C)C)ccc2OC[C@H]1C	11[16.7 µM]	1
C[C@H](CO)N1C[C@H](C)[C@H](CN(C)C(=O)CCCN(C)C)OCCCC[C@H](C)Oc2ccc(NS(=O)(=O)c3ccc(F)cc3)cc2C1=O	13[16.7 µM]	17
CC(C)NC(=O)N(C)C[C@H]1Oc2c(NC(=O)C3CCCCC3)cccc2C(=O)N([C@@H](C)CO)C[C@H]1C	-51[16.7 µM]	9
CCCC#Cc1ccc2c(c1)O[C@@H](CN(C)S(=O)(=O)c1cccc(OC)c1)[C@H](C)CN([C@@H](C)CO)S2(=O)=O	40[16.7 µM]	-17
COc1ccc(NC(=O)Nc2ccc3c(c2)[C@@H]2C[C@@H](CC(=O)N[C@@H](C)c4ccccc4)O[C@H](CO)[C@@H]2O3)cc1	6[16.7 µM]	-7
Cc1noc(C)c1S(=O)(=O)Nc1ccc2c(c1)C(=O)N([C@@H](C)CO)C[C@@H](C)[C@@H](CN(C)Cc1ccc3c(c1)OCO3)OCCCC[C@H](C)O2	-41[16.7 µM]	17
